Compound activity (PubChem)
Vif TR-FRET – inhibitors of Vif binding to APOBEC3G peptide, primary screen, biochemical, TR-FRET, GST-Vif 1-94, biotin-A3G peptide, dose response retest (AID 1117319); TR-FRET GST-Vif / biotin-A3G peptide binding; higher % means a stronger effect; test concentration not given here; strong numbers were not always called active; one-dose inhibition, %; IC50 in µM for titrated hits; 260,000 tested, 0.57% active;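 active = above the screen mean plus three standard deviations and confirmed in dose response; inconclusive = results disagree or hit not tested in dose response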;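 note: Vif residues 1-94 fused to GST binding biotinylated APOBEC3G peptide 110-148; 0% = full assay without inhibitor and 100% = GST in place of GST-Vif; retest series ran down from 100 µM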
UCH37 DUB inh – human UCH37 deubiquitinating enzyme inhibition; Q9Y5K5; purified proteasome/UCH37, Ub-AMC cleavage fluorescence; inhibition, % (concentration not given with the values); 330,000 tested, 0.33% active; AID 588478;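 active = mean of two replicates above 20%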;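 note: 0% = compound-free wells with enzyme and 100% = wells lacking proteasome; stock transfer was 100 nL into about 20 µL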
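Reagent: Ub-AMC substrate; assay system: Proteasome-associated human UCH37 deubiquitinase; controls: no-proteasome and no-compound wells; read-out: % inhibition of Ub-AMC cleavage fluorescence; timing: 30 min preincubation with enzyme, 25 min cleavage at room temperature; signal: AMC fluorescence from Ub-AMC cleavage, excitation 355 nm, emission 460 nm; buffer or medium: Tris-HCl pH 7.4 plus ovalbumin, ATP-MgCl2, DTT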
Ecoli growth – E. coli growth inhibition. AID 1053175. OD600 absorbance (test concentration not listed). Escherichia coli growth, OD600, 23 h; hits give low values. 330,000 tested, 0.21% active;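 active = OD600 absorbance below the run mean of sample wells minus 3.6 SD, in any replicate, cut at about 0.56 in these data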;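 note: stock transfer was 300 nL into about 60 µL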
HNF4A DNA FP – change in binding of human HNF4 alpha to DNA | P41235 | HNF4a-FITC DNA binding, fluorescence polarization, 1 h | activity change, % at 10 µM | 360,000 tested, 0.3% active; in the data active = activity change above about 30%, passing the limit was not always enough;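 note: controls were the assay level and a saturating level of protein; the project sought stronger binding though the title names inhibitors; some compounds called inactive have numbers as strong as hits; positive values seem to mean higher polarization but the record does not say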
Target sequence (P41235 whole entry, looked up): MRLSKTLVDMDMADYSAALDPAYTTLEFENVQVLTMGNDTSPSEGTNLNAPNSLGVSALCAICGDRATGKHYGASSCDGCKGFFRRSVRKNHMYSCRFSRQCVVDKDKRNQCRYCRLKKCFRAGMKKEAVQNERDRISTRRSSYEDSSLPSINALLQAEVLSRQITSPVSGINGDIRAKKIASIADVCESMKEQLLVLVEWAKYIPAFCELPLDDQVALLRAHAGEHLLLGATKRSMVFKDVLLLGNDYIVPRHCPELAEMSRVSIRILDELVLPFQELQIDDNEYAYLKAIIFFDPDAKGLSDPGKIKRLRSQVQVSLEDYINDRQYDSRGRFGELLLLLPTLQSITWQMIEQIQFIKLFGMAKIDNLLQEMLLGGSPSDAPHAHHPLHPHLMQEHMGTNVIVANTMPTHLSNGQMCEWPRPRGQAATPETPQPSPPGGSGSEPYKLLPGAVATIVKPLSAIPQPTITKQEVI
A1 inh – inhibitors of the anti-apoptotic protein A1, read as caspase activation. 330,000 tested, 0.066% active. AID 2462. caspase activation, % (no concentration beside the values). MEF A1-2A-BIM cells, Caspase-Glo 3/7 luminescence, 3 h; percent of clofoctol response, vehicle zero;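 active = over half of replicate activation scores above 10%, or exactly half above 10 with the replicate mean above 10; inconclusive = replicate mean below 10 yet half the replicates above 10; inactive = over half of replicates below 10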;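 note: wells of about 30 µL received 50 nL stock; many hits fall short of the cut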
Beta2AR agonist – agonists of human beta-2 adrenergic receptor inducing internalization. P07550. Am2.2-beta2AR cells, FAP receptor internalization, flow cytometry; reference of the scale not given here. response, % (test concentration not listed). 340,000 tested, 0.43% active;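 active = response above a set limit, near 3 SD of response in nonfluorescent compounds, cut at about 42% in these data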;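 note: stock transfer was 100 nL into about 11 µL; a reference agonist was the positive control; negative values mostly stem from fluorescent compounds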
Target sequence (P07550 whole entry, looked up): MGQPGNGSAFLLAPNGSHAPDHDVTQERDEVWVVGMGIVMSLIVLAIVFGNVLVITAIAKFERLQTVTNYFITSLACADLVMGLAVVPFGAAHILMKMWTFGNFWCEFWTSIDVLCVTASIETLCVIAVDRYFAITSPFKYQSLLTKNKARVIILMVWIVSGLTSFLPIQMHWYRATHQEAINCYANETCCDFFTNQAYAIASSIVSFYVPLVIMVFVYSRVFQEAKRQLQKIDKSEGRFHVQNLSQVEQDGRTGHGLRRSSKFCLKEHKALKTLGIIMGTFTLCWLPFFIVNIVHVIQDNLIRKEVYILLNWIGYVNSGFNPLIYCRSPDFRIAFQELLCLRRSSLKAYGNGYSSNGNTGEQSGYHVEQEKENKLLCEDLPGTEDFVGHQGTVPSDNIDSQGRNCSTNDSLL
LANA-H2B inh – blocks KSHV LANA binding to histone H2A/H2B; Q9QR71; cell-free LANA-H2A/H2B peptide, fluorescence polarization; inhibition, % (no concentration beside the values); 320,000 tested, 0.6% active; in the data active = inhibition mostly above about 10%, no sharp cut-off; inactive = mostly below about 6.7%;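 note: stock transfer was 7.5 nL into about 10 µL; 0% = median of vehicle wells and 100% = median of positive control wells; one replicate is shown; the record names a cut of 25% in any replicate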
* hit, by the source's call; u = inconclusive; x = not tested or not shown.

Short forms: A = Vif TR-FRET; B = UCH37 DUB inh; C = Ecoli growth; D = HNF4A DNA FP; E = A1 inh; F = Beta2AR agonist; G = LANA-H2B inh
> CN(Cc1ccco1)c1ncnc2ccc(-c3ccoc3)cc12
  A: x | B: 0.2 | C: x | D: -5.4 | E: 1.4 | F: -1 | G: 0.4

> COc1ccc(-c2csc(Nc3ccccc3)n2)cc1
  A: -3% | B: 4.5 | C: 0.72 | D: -0.9 | E: -5.9 | F: 2 | G: 1.7

> CCOC(=O)c1ccc(N2CCOCC2)c(NC(=O)c2c(-c3ccccc3)noc2C)c1
  A: x | B: x | C: x | D: -1.3 | E: 0.2 | F: -4 | G: -3.3

> COc1ccc(Nc2cc(C)nc3nc(C)nn23)c(OC)c1
  A: 6% | B: 5.8 | C: 0.71 | D: 1.4 | E: -0.8 | F: 2 | G: 3.5

> Cc1nc2nc(SCC(=O)N3CCOCC3)nn2c(C)c1Cc1ccccc1
  A: 3% | B: 4.6 | C: 0.68 | D: -3.7 | E: 0.4 | F: 3 | G: -0.2

> O=C(/C=N/O)NCc1cccnc1
  A: -4% | B: x | C: x | D: 1.9 | E: 0.8 | F: 12 | G: -3.3

> Cc1cc(C(=O)NCCCC(=O)O)c(C)o1
  A: 17% | B: 3.2 | C: 0.7 | D: 5.4 | E: 0.3 | F: -2 | G: -1.7

> O=C(/C=C/c1ccccc1Cl)c1ccccc(=O)c1O
  A: u | B: 1.1 | C: 0.66 | D: -4.2 | E: -0.4 | F: -4 | G: -496

> Cc1cccc(NC(=S)NC(=O)c2cc(-c3ccccc3)nc3ccccc23)c1
  A: 6% | B: 3.9 | C: 0.76 | D: 2.9 | E: 0.5 | F: 10 | G: 2.6

> C[C@@]12C(=O)Nc3cc(F)ccc3C(=O)N1[C@H]1c3ccccc3OC[C@@H]1[C@@H]2c1ccccc1
  A: x | B: x | C: x | D: -0.1 | E: 0.6 | F: -9 | G: 2.5

> COc1ccc2cc3cc(C(=O)Nc4ccc5c(c4)OCO5)oc3nc2c1
  A: 28% | B: 1.9 | C: 0.74 | D: 1.2 | E: -0.2 | F: 16 | G: -0.9

> COc1ccc(OC)c(C(C)NC(=O)Nc2cccc(C(C)=O)c2)c1 (stereo not drawn)
  A: 10% | B: 4.9 | C: 0.66 | D: 0.8 | E: 1.1 | F: -1 | G: 0.1

> CC(=O)Nc1ccc(S(=O)(=O)NCCSCc2ccccc2Cl)cc1
  A: x | B: 2.3 | C: 0.68 | D: -0.2 | E: -0.1 | F: -4 | G: 1.2

> COc1ccccc1CNC(=O)COc1ccc(S(=O)(=O)N2CCOCC2)cc1C
  A: 21% | B: 2.5 | C: 0.71 | D: 1.9 | E: -0.2 | F: -6 | G: -0.9

> COc1ccc(CC(=O)c2ccc(O)cc2O)cc1
  A: 21% | B: 9.6 | C: 0.72 | D: 2.7 | E: 0.7 | F: 15 | G: -5.6

> Cc1cc(-c2n[nH]c(=S)n2/N=C/c2sccc2C)n[nH]1
  A: x | B: x | C: x | D: 1.4 | E: 0.1 | F: -19 | G: 2.3

> Nc1cc(S(=O)(=O)N2CCCCC2)ccc1Oc1ccccc1
  A: 8% | B: 5.8 | C: 0.7 | D: 3.3 | E: 0.4 | F: -9 | G: -3.1

> Cc1ccc(SC(C)C(=O)N2CCC(C(N)=O)CC2)cc1 (stereo not drawn)
  A: -7% | B: 5.3 | C: 0.7 | D: -1.2 | E: -0.7 | F: -9 | G: 0.2

> Cc1cc(C)n2nc(C(=O)OCC(=O)NCc3ccccc3)nc2n1
  A: 2% | B: 2.3 | C: 0.69 | D: 5.3 | E: 0.0 | F: 0 | G: -0.4

> Cc1cc(-c2nn(C)c(=O)c3ccccc23)cc(C)c1O
  A: -4% | B: -1.2 | C: 0.7 | D: -0.6 | E: 0.2 | F: -1 | G: 0.6

> O=C1COc2ccc(S(=O)(=O)Nc3cccc(Cl)c3)cc2N1
  A: -5% | B: 4.0 | C: 0.66 | D: 1.8 | E: 0.0 | F: 3 | G: -5.1

> CCCSc1nc2c(c(=O)n(C)c(=O)n2C)n1C
  A: -7% | B: -0.5 | C: 0.67 | D: -0.3 | E: 0.5 | F: 0 | G: 3.4

> COc1cc2nc(CCc3ccccc3)oc(=O)c2cc1OC
  A: 19% | B: -2.4 | C: 0.69 | D: -3.9 | E: -0.2 | F: 20 | G: 4.5

> CC(NC(=O)c1ccc2ccccc2n1)c1ccccc1 (stereo not drawn)
  A: -2% | B: -0.6 | C: 0.71 | D: 3.5 | E: -0.2 | F: -8 | G: -3.6

> CN(Cc1ccccc1)C(=O)c1ccc(NC(=O)Cc2ccc(NC(=O)C3CCN(C(=O)C4CCC4)CC3)cc2)cc1
  A: -3% | B: 3.8 | C: 0.69 | D: 1.8 | E: x | F: 0 | G: x

> COC(=O)c1ccccc1NC(=O)CN1CCN(C(=O)c2ccco2)CC1
  A: 25% | B: 0.2 | C: 0.66 | D: 0.7 | E: -0.3 | F: 9 | G: -1.2

> Cc1onc(-c2c(Cl)cccc2Cl)c1C(=O)NC1CCCCC1
  A: x | B: 1.0 | C: 0.62 | D: -4.7 | E: -0.2 | F: 12 | G: -1.6

> CCn1c(SCC(=O)N2CCOCC2)nc2c(c1=O)SC(C)C2 (stereo not drawn)
  A: 7% | B: 7.1 | C: 0.7 | D: 2.3 | E: 1.0 | F: -3 | G: -0.9

> CCOc1cc(C2NC(=O)NC(C)=C2C(=O)OCC2CCCCC2)ccc1O (stereo not drawn)
  A: x | B: 3.3 | C: 0.65 | D: 0.3 | E: 0.1 | F: 1 | G: -12

> CN1CCN(C(=O)c2ccc3ccccc3c2)CC1
  A: 3% | B: 1.2 | C: 0.7 | D: 3.1 | E: -1.1 | F: -1 | G: 2.4

2 neighbouring compounds out of the list so far, quoted:
Short forms: A = Vif TR-FRET; B = UCH37 DUB inh; C = Ecoli growth; D = HNF4A DNA FP; E = A1 inh; F = Beta2AR agonist; G = LANA-H2B inh
> CCOc1cc(C2NC(=O)NC(C)=C2C(=O)OCC2CCCCC2)ccc1O (stereo not drawn)
  A: x | B: 3.3 | C: 0.65 | D: 0.3 | E: 0.1 | F: 1 | G: -12

> CN1CCN(C(=O)c2ccc3ccccc3c2)CC1
  A: 3% | B: 1.2 | C: 0.7 | D: 3.1 | E: -1.1 | F: -1 | G: 2.4

The main list resumes with the 2 entries that preceded the break.
Short forms: A = Vif TR-FRET; B = UCH37 DUB inh; C = Ecoli growth; D = HNF4A DNA FP; E = A1 inh; F = Beta2AR agonist; G = LANA-H2B inh
> CCOc1cc(C2NC(=O)NC(C)=C2C(=O)OCC2CCCCC2)ccc1O (stereo not drawn)
  A: x | B: 3.3 | C: 0.65 | D: 0.3 | E: 0.1 | F: 1 | G: -12

> CN1CCN(C(=O)c2ccc3ccccc3c2)CC1
  A: 3% | B: 1.2 | C: 0.7 | D: 3.1 | E: -1.1 | F: -1 | G: 2.4

> Cc1ccc(Cn2c(=O)sc3ccccc3c2=O)cc1
  A: -1% | B: 2.7 | C: 0.72 | D: 1.6 | E: -0.5 | F: -7 | G: -0.4

> Cc1ccc(S(=O)(=O)Nc2ncnc3sccc23)cc1C
  A: -1% | B: 0.8 | C: 0.66 | D: -4.7 | E: x | F: 2 | G: x

> Cc1nc2ccc(NS(=O)(=O)c3c(F)cccc3F)cc2s1
  A: -7% | B: 0.0 | C: 0.63 | D: 23 | E: -0.4 | F: 11 | G: 2.0

> COc1ccc(N(C(=O)CNC(=O)c2cccs2)C(C(=O)NCC2CCCO2)c2ccccc2)cc1OC (stereo not drawn)
  A: 12% | B: 4.2 | C: 0.7 | D: -0.4 | E: -0.7 | F: -10 | G: 3.6

> COc1ccc(S(=O)(=O)N2CN3CCN(C3)C2)cc1OC
  A: -9% | B: 0.9 | C: 0.66 | D: 0.1 | E: 0.5 | F: -2 | G: -2.2

> C=CCn1c(CSCc2ccccc2)nnc1SCC(=O)NCc1ccccc1
  A: 11% | B: 0.6 | C: 0.7 | D: -1.9 | E: 0.1 | F: -8 | G: -3.2

> CCCn1c(SCC(=O)N2CCN(S(=O)(=O)c3ccc(Cl)cc3)CC2)n[nH]c1=O
  A: 14% | B: 1.0 | C: 0.72 | D: 0.2 | E: 0.3 | F: 1 | G: 0.0

> COC(=O)C(CCSC)NC(=O)CNS(=O)(=O)c1ccc(F)cc1 (stereo not drawn)
  A: -11% | B: 3.0 | C: 0.68 | D: 7.3 | E: -0.3 | F: 0 | G: -8.9

> Cc1ccc(NC(=O)C(C)[n+]2ccccc2)cc1[N+](=O)[O-] (stereo not drawn)
  A: -4% | B: 1.1 | C: 0.66 | D: -1.7 | E: 0.0 | F: 6 | G: 2.6

> COc1ccc(-c2cccc(-c3cc(=O)oc4ccc(C(C)(C)C)cc34)c2)cc1
  A: -5% | B: -0.8 | C: 0.7 | D: 2.8 | E: x | F: 0 | G: x

> Cc1cc(/C=N/n2c(COc3ccccc3)nc3ccccc3c2=O)c(O)c([N+](=O)[O-])c1
  A: x | B: x | C: x | D: 0.4 | E: 0.2 | F: -7 | G: -2.3

> CN1CCN(CCCOc2ccc(-c3ccccc3)cc2)CC1
  A: x | B: 2.3 | C: 0.63 | D: 3.3 | E: 0.3 | F: 15 | G: -3.4

> COc1ccc(-n2c(C)ccc2-c2ccccc2)cn1
  A: x | B: x | C: x | D: -31 | E: -1.7 | F: 5 | G: 79*

> CCC(=O)N=c1sc2c(C)cc(C)cc2n1CC(=O)OC
  A: -38% | B: 3.6 | C: 0.73 | D: 0.0 | E: -0.3 | F: 18 | G: -2.1

> CCCCOc1ccc(C2C(=O)N(C3CCCCC3)CC(=O)N2CC2CCCO2)cc1 (stereo not drawn)
  A: 0% | B: 1.4 | C: 0.71 | D: 5.4 | E: 0.4 | F: -4 | G: 0.2

> O=C(COc1cccc(-n2cnnn2)c1)NCCC1=CCCCC1
  A: -2% | B: 1.7 | C: 0.71 | D: 0.4 | E: -0.3 | F: -6 | G: -3.2

> CC(OC(=O)CN1C(=O)C2CC=CCC2C1=O)C(=O)Nc1ccc(F)cc1Cl (stereo not drawn)
  A: 5% | B: -0.7 | C: 0.71 | D: 0.5 | E: 0.8 | F: -6 | G: 0.2

> CCN(CC)CC(=O)Nc1ccccc1SCC(=O)Nc1ccsc1C(=O)OC
  A: -1% | B: 3.0 | C: 0.69 | D: 3.5 | E: 0.2 | F: -3 | G: 12

> C/C(=N\OCC(=O)OCC(=O)NC(=O)c1ccc(OC(F)F)cc1)c1ccc2c(c1)OCO2
  A: -5% | B: x | C: x | D: -1.4 | E: 0.2 | F: -3 | G: -5.3

> CC(C)(CNC(=O)c1cccc(S(=O)(=O)Nc2ccc(SC(F)F)cc2)c1)N1CCOCC1
  A: x | B: 1.7 | C: 0.67 | D: -0.3 | E: x | F: -2 | G: x

> FC(F)(F)c1nnc2sc(-c3ccncc3)nn12
  A: 2% | B: 0.4 | C: 0.66 | D: 1.4 | E: 0.1 | F: 5 | G: -1.2

> Cc1nc2c(Br)cc(Br)cc2cc1O
  A: -9% | B: 1.8 | C: 0.56* | D: -0.1 | E: -0.7 | F: 57* | G: -2.9

> C=CCC(C(=O)c1ccccc1)[N+](C)(C)CC=C (stereo not drawn)
  A: -3% | B: -0.8 | C: 0.7 | D: 2.4 | E: 1.1 | F: 0 | G: 4.8

> CCOC(=O)N1CCN(C(=O)CN(C)S(=O)(=O)c2ccc(F)cc2)CC1
  A: x | B: 1.8 | C: 0.68 | D: 2.8 | E: -0.1 | F: -3 | G: -3.3
